Compound activity from PubChem.
KCNQ2 block = KCNQ2 potassium channel inhibitors, primary screen, cell-based, CHO-K1, FluxOR thallium flux, B-score (AID 2156); Potassium voltage-gated channel subfamily KQT member 2 (Rattus norvegicus), O88943; 20 min; stronger effect = lower value; only compounds with negative scores are shown here; some inactives read as strong as hits; 1.1% of 310,000 active; B-score at 10 µM;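 active = fluorescence ratio B-score at most minus 3 library SDs, with starting brightness B-score within 2 library SDs, cut at about -5.5 in these data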
Target sequence (O88943 whole entry, looked up): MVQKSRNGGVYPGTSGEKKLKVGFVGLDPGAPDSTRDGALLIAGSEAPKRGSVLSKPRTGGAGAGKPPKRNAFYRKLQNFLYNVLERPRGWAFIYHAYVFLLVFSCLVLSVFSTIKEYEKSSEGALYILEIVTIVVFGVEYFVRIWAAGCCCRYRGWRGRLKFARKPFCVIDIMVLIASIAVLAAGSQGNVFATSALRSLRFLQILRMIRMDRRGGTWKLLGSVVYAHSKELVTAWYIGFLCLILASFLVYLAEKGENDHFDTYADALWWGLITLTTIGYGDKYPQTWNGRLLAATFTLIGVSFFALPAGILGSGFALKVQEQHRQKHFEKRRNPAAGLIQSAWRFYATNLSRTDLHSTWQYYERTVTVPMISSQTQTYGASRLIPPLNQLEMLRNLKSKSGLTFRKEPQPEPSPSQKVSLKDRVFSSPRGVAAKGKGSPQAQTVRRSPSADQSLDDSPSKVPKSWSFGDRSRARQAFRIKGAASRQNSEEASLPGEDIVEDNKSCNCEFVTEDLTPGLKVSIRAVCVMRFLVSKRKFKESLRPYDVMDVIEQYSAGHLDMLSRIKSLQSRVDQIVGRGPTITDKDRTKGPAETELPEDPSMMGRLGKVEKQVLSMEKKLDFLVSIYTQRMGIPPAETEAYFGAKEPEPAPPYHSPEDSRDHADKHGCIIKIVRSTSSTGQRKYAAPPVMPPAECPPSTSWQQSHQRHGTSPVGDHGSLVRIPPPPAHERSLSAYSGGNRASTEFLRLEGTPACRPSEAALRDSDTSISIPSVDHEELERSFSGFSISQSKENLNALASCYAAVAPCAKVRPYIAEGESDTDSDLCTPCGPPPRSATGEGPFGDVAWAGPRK
KCNQ2 block baseline = also measured in KCNQ2 block; calls as there; B-score; measured here: initial fluorescence intensity artifact check;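 brightness before thallium and not channel activity; 0 = typical well and far values either way flag optical interference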
Active calls of the source: *. These rows are one share of the data (hit frequency here may not be typical).

For O=c1cc(N2CCCCC2)c2ccccc2o1 the results were KCNQ2 block inactive and KCNQ2 block baseline 1.14.
Screening CCc1nc(SCC(=O)N2CCN(c3ccccc3)CC2)c2oc3ccccc3c2n1 returned KCNQ2 block inactive and KCNQ2 block baseline 0.47.
CCCOn1c(-n2nc(C)cc2C)nc2ccccc2c1=O was read as KCNQ2 block inactive and KCNQ2 block baseline -0.36.
Screening COc1cc(C(=O)O)cc(OC)c1OCc1cc(C(=O)O)oc1C returned KCNQ2 block inactive and KCNQ2 block baseline -1.34.
Screening CCCCc1c(C)nc2ccc(C)cc2c1SCCC(=O)O returned KCNQ2 block inactive and KCNQ2 block baseline 0.01.
For O=C(COC(=O)c1ccccc1NC(=O)c1ccco1)Nc1ccc2c(c1)OCO2 the results were KCNQ2 block inactive and KCNQ2 block baseline 0.14.
For O=C(NCC1CC1)c1onc(CSc2ccc(F)c(F)c2)c1C(=O)NCC1CC1 the results were KCNQ2 block inactive and KCNQ2 block baseline -1.
For O=C(CSc1nc2sc3c(c2c(=O)n1-c1ccccc1)CCCC3)NCc1ccco1 the results were KCNQ2 block inactive and KCNQ2 block baseline -2.06.
`Cc1cc(C)n(-c2nc3ccccc3nc2NCCc2ccccc2)n1` gave KCNQ2 block -7.46* and KCNQ2 block baseline -0.94*.
`COc1cccc(/C=N/Nc2ncnc3c2ncn3Cc2ccccc2)c1O` gave KCNQ2 block inactive and KCNQ2 block baseline 3.57.
Screening CCOC(=O)N1CCN(Cc2nnc(-c3ccccc3Cl)o2)CC1 returned KCNQ2 block inactive and KCNQ2 block baseline -0.77.
For COc1ccc(NC(=O)CCc2c(C)nn(-c3ccc(N4CCOCC4)nn3)c2C)cc1 the results were KCNQ2 block inactive and KCNQ2 block baseline -0.09.
For CCCn1c(=O)[nH]c(=O)c2c1nc(-c1ccc(C(F)(F)F)cc1)n2CCOC the results were KCNQ2 block inactive and KCNQ2 block baseline -0.38.
CCCOC(=O)C1C2C=CC(C3CC23)C1C(=O)OCC(=O)c1ccccc1 (stereo not given) was read as KCNQ2 block -9.45* and KCNQ2 block baseline -0.98*.
For CC(=O)c1cccc(NC(=S)N2CCN(S(=O)(=O)c3ccc(F)cc3)CC2)c1 the results were KCNQ2 block inactive and KCNQ2 block baseline -0.73.

Reprinted from the part before: four entries, then new ones.
For COc1ccc(NC(=O)CCc2c(C)nn(-c3ccc(N4CCOCC4)nn3)c2C)cc1 the results were KCNQ2 block inactive and KCNQ2 block baseline -0.09.
For CCCn1c(=O)[nH]c(=O)c2c1nc(-c1ccc(C(F)(F)F)cc1)n2CCOC the results were KCNQ2 block inactive and KCNQ2 block baseline -0.38.
CCCOC(=O)C1C2C=CC(C3CC23)C1C(=O)OCC(=O)c1ccccc1 (stereo not given) was read as KCNQ2 block -9.45* and KCNQ2 block baseline -0.98*.
For CC(=O)c1cccc(NC(=S)N2CCN(S(=O)(=O)c3ccc(F)cc3)CC2)c1 the results were KCNQ2 block inactive and KCNQ2 block baseline -0.73.
Screening C=CCc1cc(/C=C2/NC(=O)NC2=O)cc(OCC)c1O returned KCNQ2 block inactive and KCNQ2 block baseline 0.14.
Screening COc1ccc(CCCc2nnc(SCC(=O)Nc3nc(C)cs3)n2C)cc1C returned KCNQ2 block inactive and KCNQ2 block baseline -1.31.
Screening NC(=O)/C(=C/c1cccnc1)NC(=O)c1ccccc1 returned KCNQ2 block inactive and KCNQ2 block baseline 0.74.
For CCCC(C(=O)OCCN(CC)CC)(c1ccccc1)c1ccccc1 the results were KCNQ2 block inactive and KCNQ2 block baseline -0.48.
`COc1cccc(N=Cc2c(O)n(-c3cccc(C)n3)c(=O)c3ccccc23)c1` gave KCNQ2 block inactive and KCNQ2 block baseline -1.44.
For Cc1cc(Cl)c(Cl)cc1S(=O)(=O)NCCCn1ccnc1 the results were KCNQ2 block inactive and KCNQ2 block baseline 2.27.
Screening CN1CCN(C(=S)Nc2cccc(S(=O)(=O)N(C)C)c2)CC1 returned KCNQ2 block inactive and KCNQ2 block baseline 0.31.
For CCSCc1nnc(SCC(=O)c2ccc(OC)cc2)n1C the results were KCNQ2 block inactive and KCNQ2 block baseline -0.47.
For Cc1cc(C)c(NS(=O)(=O)c2cccc3cccnc23)c(C)c1 the results were KCNQ2 block inactive and KCNQ2 block baseline -0.65.
Screening N#Cc1nc(N2CCCCC2)nc(N2CCOCC2)n1 returned KCNQ2 block inactive and KCNQ2 block baseline -0.4.
`Cc1ccc(N=C2NC(=O)/C(=C\c3cccs3)S2)cc1C` gave KCNQ2 block inactive and KCNQ2 block baseline 1.47.
Screening Cc1ccc(-c2ccc(S(=O)(=O)NCc3ccco3)cc2)cc1 returned KCNQ2 block inactive and KCNQ2 block baseline 0.22.
C/C(=N\NC(=O)C(c1ccccc1)c1ccccc1)c1ccccn1 was read as KCNQ2 block inactive and KCNQ2 block baseline -0.56.
`COc1ccc(CCNC(=O)c2[nH]c(C)c(C(C)=O)c2C)cc1OC` gave KCNQ2 block inactive and KCNQ2 block baseline 0.57.
`CCOCc1c(C(=O)NC2=Nc3ccccc3NC(CC)=C2C(=O)OCC)oc2ccccc12` gave KCNQ2 block inactive and KCNQ2 block baseline 2.12.
Screening CC(CCN(C)C)OC(=O)c1ccc(C(C)c2ccccc2)o1 (stereo not given) returned KCNQ2 block inactive and KCNQ2 block baseline 0.02.
For O=C(NCc1cccc(F)c1)C1CCC(=O)N(C2CCCC2)C1 (stereo not given) the results were KCNQ2 block inactive and KCNQ2 block baseline 0.22.
Screening CC(=O)NC1=NN(C(C)=O)C(C)(CCS(=O)(=O)c2ccc(Br)cc2)S1 (stereo not given) returned KCNQ2 block inactive and KCNQ2 block baseline -1.4.
Cc1ccc(S(=O)(=O)N(Cc2ccccc2)C(C)C)cc1 was read as KCNQ2 block inactive and KCNQ2 block baseline 0.08.
For O=C(c1ccc(Cl)c(S(=O)(=O)N2CCOCC2)c1)N1CCN(c2ccccc2F)CC1 the results were KCNQ2 block inactive and KCNQ2 block baseline 1.83.
`COC(=O)c1ccc(NC(=O)CSCC(=O)OCC(=O)c2ccc(Br)cc2)cc1` gave KCNQ2 block inactive and KCNQ2 block baseline -1.03.
`Cc1cc(NC(=O)c2c([N+](=O)[O-])c(C)nn2C)no1` gave KCNQ2 block inactive and KCNQ2 block baseline 0.07.
For COc1cc(NC(=O)N[C@@H](CCSC)C(=O)O)cc(OC)c1 the results were KCNQ2 block inactive and KCNQ2 block baseline 0.71.
For CC(=O)c1ccc(Nc2cc(C)nc3c(C)cccc23)cc1 the results were KCNQ2 block inactive and KCNQ2 block baseline 0.96.
For O=C(Nc1cccc2ncccc12)c1cccc(Br)c1 the results were KCNQ2 block inactive and KCNQ2 block baseline 0.4.
Screening Cc1ccc(-c2nn(-c3cccc(F)c3)cc2CN2CCN(c3ccccn3)CC2)o1 returned KCNQ2 block inactive and KCNQ2 block baseline 2.14.
`O=C(N/N=C/c1cccc([N+](=O)[O-])c1)c1ccc(CN2CCOCC2)cc1` gave KCNQ2 block inactive and KCNQ2 block baseline 0.7.
O=C(CCC1CCCC1)Nc1cccn(Cc2ccccc2Br)c1=O was read as KCNQ2 block inactive and KCNQ2 block baseline -0.2.
Screening COc1cccc(C2=CC(c3cccs3)n3nnnc3N2)c1 (stereo not given) returned KCNQ2 block inactive and KCNQ2 block baseline -0.15.
For COc1ccc(-c2cc(C)no2)cc1S(=O)(=O)N(C)c1ccc(C)c(C)c1 the results were KCNQ2 block inactive and KCNQ2 block baseline 0.02.

Gathered by group, those above containing bromine.
Screening CC(=O)NC1=NN(C(C)=O)C(C)(CCS(=O)(=O)c2ccc(Br)cc2)S1 (stereo not given) returned KCNQ2 block inactive and KCNQ2 block baseline -1.4.
`COC(=O)c1ccc(NC(=O)CSCC(=O)OCC(=O)c2ccc(Br)cc2)cc1` gave KCNQ2 block inactive and KCNQ2 block baseline -1.03.
For O=C(Nc1cccc2ncccc12)c1cccc(Br)c1 the results were KCNQ2 block inactive and KCNQ2 block baseline 0.4.
O=C(CCC1CCCC1)Nc1cccn(Cc2ccccc2Br)c1=O was read as KCNQ2 block inactive and KCNQ2 block baseline -0.2.

Later entries.
O=C(COC(=O)c1cc(Cl)ccc1[N+](=O)[O-])Nc1cccc2ccccc12 was read as KCNQ2 block inactive and KCNQ2 block baseline -0.38.
`COc1ccccc1OCc1nc(C#N)c(N2CC(C)CC(C)C2)o1` (stereo not given) gave KCNQ2 block inactive and KCNQ2 block baseline -0.15.
Screening CC1CCc2c(sc3nc4n(c(=O)c23)CCS4)C1 (stereo not given) returned KCNQ2 block inactive and KCNQ2 block baseline -0.09.
COC(=O)/C=C1\C(=O)N(c2nc3ccc(OC)cc3s2)C(=S)N1c1ccc(F)cc1 was read as KCNQ2 block inactive and KCNQ2 block baseline 1.14.
Screening COCCN(C(=O)COc1ccc(Cl)cc1)c1nnc(-c2cccnc2)s1 returned KCNQ2 block inactive and KCNQ2 block baseline 0.45.
CCOC(=O)c1sc(NC(=O)CSc2nnc(-c3ccc(OC)cc3)n2CCOC)nc1C was read as KCNQ2 block inactive and KCNQ2 block baseline -0.25.
`COc1ccc(-n2c(SCC(=O)NCc3ccco3)nnc2-c2c[nH]c3ccccc23)cc1` gave KCNQ2 block inactive and KCNQ2 block baseline 4.34.
Clc1ccc(-c2cn(-c3ccccc3)c3[n+]2CCS3)cc1 was read as KCNQ2 block inactive and KCNQ2 block baseline -0.02.
COc1ccc(Cl)cc1NC(=O)C(C)N(C)Cc1cccc(Cl)c1Cl (stereo not given) was read as KCNQ2 block -7.27* and KCNQ2 block baseline 1.58*.
`O=C(Cc1ccccc1)Nc1ccccc1C(=O)N1CCN(c2ccccc2)CC1` gave KCNQ2 block inactive and KCNQ2 block baseline 0.48.
Cc1ccc(-n2c(-c3cc(C)n(C)n3)n[nH]c2=S)cc1 was read as KCNQ2 block inactive and KCNQ2 block baseline 0.83.
Screening CCOc1ccc(Oc2ccccc2NC(=O)CSCC(=O)Nc2cc(C)on2)cc1 returned KCNQ2 block inactive and KCNQ2 block baseline -0.01.
Screening Cc1c(NC(=O)C2C3C=CC(C3)C2C(=O)O)c(=O)n(-c2ccccc2)n1C (stereo not given) returned KCNQ2 block inactive and KCNQ2 block baseline 0.63.
`CCCN(Cc1cc2cc(OC)ccc2[nH]c1=O)C(=O)c1ccco1` gave KCNQ2 block inactive and KCNQ2 block baseline 0.2.
For Cc1cc(N2C(=O)C(O)=C(C(=O)c3cc4ccccc4o3)C2c2ccc([N+](=O)[O-])cc2)no1 (stereo not given) the results were KCNQ2 block inactive and KCNQ2 block baseline -0.2.

Arranged by molar mass (low to high): part of the list above
`COc1ccccc1OCc1nc(C#N)c(N2CC(C)CC(C)C2)o1` (stereo not given) gave KCNQ2 block inactive and KCNQ2 block baseline -0.15.
For Cc1cc(Cl)c(Cl)cc1S(=O)(=O)NCCCn1ccnc1 the results were KCNQ2 block inactive and KCNQ2 block baseline 2.27.
For O=C(NCC1CC1)c1onc(CSc2ccc(F)c(F)c2)c1C(=O)NCC1CC1 the results were KCNQ2 block inactive and KCNQ2 block baseline -1.

Quoted at random: 2 compounds from above, in no set order.
For O=C(c1ccc(Cl)c(S(=O)(=O)N2CCOCC2)c1)N1CCN(c2ccccc2F)CC1 the results were KCNQ2 block inactive and KCNQ2 block baseline 1.83.
Screening COc1cccc(C2=CC(c3cccs3)n3nnnc3N2)c1 (stereo not given) returned KCNQ2 block inactive and KCNQ2 block baseline -0.15.

Next compounds:
`O=C(CNC(=O)c1ccccc1Br)N/N=C\c1cc([N+](=O)[O-])cc(Br)c1O` gave KCNQ2 block inactive and KCNQ2 block baseline -0.07.
`CN(C1CCCCC1)S(=O)(=O)c1cccc(C(=O)Nc2ccccn2)c1` gave KCNQ2 block inactive and KCNQ2 block baseline -0.18.
CCOC(=O)C(NCc1ccc2c(c1)OCO2)(NC(=O)c1ccccc1)C(F)(F)F (stereo not given) was read as KCNQ2 block inactive and KCNQ2 block baseline 0.62.
Screening CCc1nnc(SCC(=O)Nc2ccccc2Cl)nc1CC returned KCNQ2 block inactive and KCNQ2 block baseline -0.46.
Screening Cc1cccc(NC(=O)c2ccccc2NC(=O)c2ccccc2)n1 returned KCNQ2 block inactive and KCNQ2 block baseline 0.85.
For CCCCn1c(N)c(N(CCC(C)C)C(=O)C2CC(=O)N(c3ccccc3OCC)C2)c(=O)[nH]c1=O (stereo not given) the results were KCNQ2 block inactive and KCNQ2 block baseline -0.27.
Screening CC(CNC(=O)c1cccc(Br)c1)n1cncn1 (stereo not given) returned KCNQ2 block inactive and KCNQ2 block baseline 0.36.
Screening CCN(CC)c1ccc(NC(=O)CCS(=O)(=O)c2cccc3nsnc23)c(C)c1 returned KCNQ2 block inactive and KCNQ2 block baseline -0.62.
CC(=O)N1CCOc2ccc(S(=O)(=O)N3CCC(C(=O)Nc4cc(C)cc(C)c4)CC3)cc21 was read as KCNQ2 block inactive and KCNQ2 block baseline -0.73.
Cc1cc(C(F)(F)F)c(C#N)c(SCC(=O)Nc2nc3ccccc3s2)n1 was read as KCNQ2 block inactive and KCNQ2 block baseline -0.11.
Cc1ccc(/C=C2\SC(=S)N(CCC(=O)Nc3cccnc3)C2=O)cc1 was read as KCNQ2 block inactive and KCNQ2 block baseline -1.68.
Screening CC1=NN(C(N)=S)C(=O)C1N=Nc1ccc(Cl)cc1 (stereo not given) returned KCNQ2 block inactive and KCNQ2 block baseline -0.94.
Screening CCOc1ccccc1C(=O)Nc1ccc(S(=O)(=O)Nc2nccc(C)n2)cc1 returned KCNQ2 block inactive and KCNQ2 block baseline -2.74.
Cc1nn(-c2ccccc2)c(C)c1C(=O)Nc1nnc(-c2ccco2)o1 was read as KCNQ2 block inactive and KCNQ2 block baseline -0.29.
For COC(=O)c1c(-c2cccs2)csc1NC(=O)CSc1ncnc2sc(C)c(C)c12 the results were KCNQ2 block inactive and KCNQ2 block baseline 1.4.
COc1ccc2oc(C(=O)OCC(=O)N(CCC#N)c3ccccc3)c(C)c2c1 was read as KCNQ2 block inactive and KCNQ2 block baseline 0.35.
For CCn1nc(C)cc1C(=O)N1CCCC(N2CCN(Cc3ccc4c(c3)OCO4)CC2)C1 (stereo not given) the results were KCNQ2 block inactive and KCNQ2 block baseline -0.46.
Screening Cc1ccc(SC(C)C(=O)Nc2c(C)n(C)n(-c3ccccc3)c2=O)cc1 (stereo not given) returned KCNQ2 block inactive and KCNQ2 block baseline -0.07.
